Bioassay records: PubChem BioAssay, National Center for Advancing Translational Sciences (NCATS)
VDR inh = Inhibitors of the vitamin D receptor (VDR): qHTS; VDR-SRC2-3 peptide fluorescence polarization, 2 h; Potency, µM, for the others: max response, negative = inhibition, usual class: inhibitors; 400,000 compounds, 0.93% hits; AID 504847, 2011; active means well fitted inhibition curve with a large enough effect; inconclusive means small, poorly fitted or top-dose-only effect, or another doubt; inactive means no such curve, though single readings can be large or run the other way; further: series mostly up to about 120 µM
Target sequence (P11473 whole entry, looked up): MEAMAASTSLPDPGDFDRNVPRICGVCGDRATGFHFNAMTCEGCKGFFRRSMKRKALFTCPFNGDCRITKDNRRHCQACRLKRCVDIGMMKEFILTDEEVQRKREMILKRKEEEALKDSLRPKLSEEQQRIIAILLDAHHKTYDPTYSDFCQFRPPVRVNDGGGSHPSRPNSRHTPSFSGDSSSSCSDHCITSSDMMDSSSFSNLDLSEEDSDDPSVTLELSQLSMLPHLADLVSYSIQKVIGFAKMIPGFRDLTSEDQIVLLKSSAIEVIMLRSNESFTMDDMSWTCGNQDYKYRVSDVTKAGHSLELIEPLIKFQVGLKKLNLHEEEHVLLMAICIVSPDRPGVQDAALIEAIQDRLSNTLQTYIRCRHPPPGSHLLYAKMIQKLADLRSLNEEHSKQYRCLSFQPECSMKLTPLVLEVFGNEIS
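Inhibition of the VDR/SRC2-3 peptide interaction is quantified by fluorescence polarization. Compounds (23 nl, pintool) incubate with the reagents for 2 hours at ambient room temperature.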
Active calls of the source: *; ? = inconclusive; & = joins results of further samples; [ ] = another dose, or the depositor's remark. On the % scale 0 is the no-effect control and ±100 the full control effect; potency means the concentration at half of the fitted maximal effect. These rows are one share of the data, so the mix of outcomes need not match the whole.

SMILES	VDR inh
COc1ccc(-n2c(=S)[nH]c3cc(C(=O)NCCCN4CCOCC4)ccc3c2=O)cc1	-12.5%
COc1cc(/C=C2\C(=N)N3N=C(C)SC3=NC2=O)cc(Cl)c1OCCOc1ccc(NC(C)=O)cc1	6.4%
Cc1ccc(C(=O)NNc2nc3ccccc3nc2C(F)(F)F)cc1	-2.7%
C[C@H](CO)N1C[C@H](C)[C@@H](CN(C)Cc2ccc3c(c2)OCO3)Oc2ccc(NC(=O)Cn3cnnn3)cc2C1=O	-9.6%
CCN(CC(=O)NCc1ccc(F)cc1)C(=O)c1ccc(COc2ccccc2)cc1	9.2%
COc1ccc(NC(=O)c2cc3c(=O)n(Cc4ccco4)ccc3nc2C)c(OC)c1	-2.7%
COCCN(C(=S)Nc1ccc(C)cc1C)C(C)c1ccco1 (stereo unspecified)	-8.7%
O=C(OCCCN1CCOCC1)c1ccc(O)c(O)c1	7.4%
CC(C)NC(=O)Cn1cnc2c1c(=O)n(C)c(=O)n2C	-7.1%
Fc1ccc(Cn2nnc(-c3ccc(CN4CCOCC4)cc3)n2)cc1	-6.9%
COc1ccc(OC)c(-n2c(-c3cc(-c4ccco4)[nH]n3)n[nH]c2=S)c1	1.5%
C=CCN1C(=O)C(CC(=O)Nc2ccccc2)S/C1=N/c1nccs1 (stereo unspecified)	-8.8%
COc1ccc(S(=O)(=O)N(C)CC(=O)NCc2cccnc2)cc1	-0.8%
CCOC(=O)C(NCc1ccc(F)cc1)(NC(=O)c1ccccc1)C(F)(F)F (stereo unspecified)	7.9%
O=C(Nc1cccc2nsnc12)c1ccc(F)cc1	1.4%
COc1ccc(S(=O)(=O)N(CC(=O)NCc2ccncc2)c2ccc(C)cc2)cc1Br	14.8%
CCN(CC(=O)Nc1c(F)cccc1F)C(=O)CNC(=O)COc1ccccc1	-8.5%
Cc1nc2c(cc1NC(=O)C(C)(C)C)nc(C)n2Cc1ccccc1	3.4%
CCCCN(C(=O)c1cccc(S(=O)(=O)N2CCCCC2)c1)C1CCS(=O)(=O)C1 (stereo unspecified)	-7.2%&-0.2%
Cn1c(CSCc2ccc(Cl)cc2)nnc1SCC(=O)Nc1nccs1	-5.6%
CN(Cc1nc2ccccc2c(=O)[nH]1)CC(O)COCc1ccco1 (stereo unspecified)	-1.5%
COc1cccc(N2C(=O)C(CC(=O)Nc3ccc(F)cc3)N(CCC3=CCCCC3)C2=O)c1 (stereo unspecified)	-3.4%
COc1ccc(C)cc1S(=O)(=O)Nc1cc2c3c(c1)C(C)C(=O)N3CCC2 (stereo unspecified)	-16.5%
Cc1c(NC(=O)C(C)N(c2ccccc2)S(C)(=O)=O)c(=O)n(-c2ccccc2)n1C (stereo unspecified)	0.5%
Cc1c(NC(=O)CCCCCN2C(=O)C3C4C=CC(C4)C3C2=O)c(=O)n(-c2ccccc2)n1C (stereo unspecified)	-8.6%
Next part
SMILES	VDR inh
COc1ccc2cc(CCNC(=O)CCc3ccccc3)c(=O)[nH]c2c1	-4.2%
Cc1cccc(-n2c(=O)c3c(c4cc(C)ccc4n3C)n(CC(=O)NCCC3=CCCCC3)c2=O)c1	3.9%
COc1ccc(/C=C(\NC(=O)c2ccccc2)C(=O)N2CCN(C)CC2)cc1	10.5%
O=C(NCc1ccccc1)Nc1cccn(Cc2c(F)cccc2Cl)c1=O	-14.8%
O=C(CCCCCCCC(=O)N1CCCCC1)N1CCCCC1	9.3%
Cc1[nH]c2ccccc2c1SCC(=O)NNC(=O)Nc1ccc(OC(F)(F)F)cc1	0.6%
Cc1cc(C)c2nc(SC(C)C(=O)NCC(=O)Nc3ccc(F)c(F)c3F)cc(C)c2c1 (stereo unspecified)	12.9%
Cc1nc2ccccn2c(=O)c1NC(=O)c1cccc2ccccc12	-11.3%
CCCc1nnc(NC(=O)CCC(=O)N2CCC(C)CC2)s1	-4.5%
Cn1ccnc1SCC(=O)Nc1cccc(S(=O)(=O)N2CCCCC2)c1	2.5%
CCOC(=O)CSc1nnc([C@H](Cc2ccccc2)NC(=O)OC(C)(C)C)o1	9.4%
CC1=C(C(N)=O)C(c2ccc3c(c2)OCO3)n2nc(-c3cccc(C)c3)nc2N1 (stereo unspecified)	-6.2%
CC1CCC(C(C)C)C(OC(=O)Cn2c(-c3ccc(F)cc3)[n+](C)c3ccccc32)C1 (stereo unspecified)	-15.2%
CC(C(=O)c1ccccc1)n1c(N2CCOCC2)nc2c1c(=O)n(C)c(=O)n2C (stereo unspecified)	4.0%
CCN(CC(=O)NC1CCS(=O)(=O)C1)S(=O)(=O)c1ccc(Br)cc1 (stereo unspecified)	-11.1%
CCN(CC)Cc1c(C(=O)N/N=C/c2cccc3ccccc23)nnn1-c1nonc1N	-4.5%
CCCN(Cc1cc2cccc(C)c2[nH]c1=O)S(C)(=O)=O	1.0%
Nc1cnccc1C(=O)O	?
CC(C)CN1CC2(CCN(C(=O)c3ccco3)CC2)C1	-4.0%
O=C(Nc1cccc2ccccc12)NC1CCCCC1O (stereo unspecified)	19.2%
COc1cc(OC)cc(C(C)=O)c1	-10.9%
Cc1ccc2c(CC(=O)N3CCOCC3)coc2c1	-10.1%
COc1ccc(-n2c(=O)c3ccccc3n(CC(=O)c3ccccc3)c2=O)cc1OC	-10.3%
COC(=O)[C@@]12CCCN1[C@H](c1ccc(-c3ccc(C(C)=O)cc3)c(OC)c1)[C@H]1C(=O)N(C)C(=O)[C@H]12	?
O=C(Nc1nnc(C(F)(F)F)s1)c1ccc(N2C(=O)C3C4C=CC(C4)C3C2=O)cc1 (stereo unspecified)	2.0%
Carrying on:
SMILES	VDR inh
COc1ccc(OC)c(C(=O)c2c(C)oc3cc([N+](=O)[O-])c(O)c([N+](=O)[O-])c23)c1	-1.9%
C/C(=N\OC(=O)c1ccccc1)c1c(C)nc2cc(C)ccn12	-12.2%
COC(=O)c1cc(NC(=O)CN(C)Cc2ccccc2)cc(C(=O)OC)c1	13.2%
COc1ccc(OC)c(S(=O)(=O)N2CCC(C(=O)Nc3cccc(C)c3)CC2)c1	4.4%
O=C(c1ccc(CS(=O)c2cccc(Cl)c2)o1)N1CCCCCC1 (stereo unspecified)	3.7%
Cc1cc(C)n(CCCNC(=O)c2ccc(C)o2)n1	0.7%
CN(Cc1ccccc1Br)C(=O)CSc1nnnn1C1CC1	-6.9%
CCOc1ccc(/C=C/C(=O)NC2CCCCC2)cc1	10.1%
C=CCn1c(COc2ccccc2)nnc1SC(C)C(=O)N/N=C/c1cc(Cl)ccc1O (stereo unspecified)	-24.2%
CCOC(=O)c1c(C)[nH]c(C)c1S(=O)(=O)NCC(=O)Nc1ccc(CC)cc1	20.0%
Cn1cc(CNC(=O)c2cc(-c3ccc(Br)cc3)nc3ccccc23)cn1	-8.8%
COc1cc(NS(=O)(=O)c2ccc(NC(=O)c3ccc(S(=O)(=O)N4CCCCC4)cc3)cc2)ncn1	1.8%
CCOC(=O)[C@@H]1[C@H]2COc3ccccc3[C@@H]2N2C(=O)N(c3ccc(F)cc3)C(=O)[C@]12C	-5.6%
CCCn1cnc2cc(NCc3ccccc3O)ccc21	23.0%
CC1=NN(C(N)=S)C(=O)C1N=Nc1ccc([N+](=O)[O-])cc1 (stereo unspecified)	-9.5%
COc1ccc(CNC(=O)[C@@H](NC(=O)C2CCN(C(=O)[C@@H]3CCCN3C(=O)OC(C)(C)C)CC2)C(C)C)cc1	-23.5%
C=CCC(C(=O)OC)(C(=O)OC)c1ccc(C(F)(F)F)cc1[N+](=O)[O-]	-8.2%
Cc1ccc(SCCCCN2CCOCC2)cc1	14.9%
CCN(CC)C(=S)NC(=O)c1cc(OC)c(OC)c(OC)c1	18.2%
Cc1cc(C(=O)Nc2nccs2)c2cc(F)ccc2n1	21.5%
CCCOc1ccc(NC(=O)C2CC(=O)N/C(=N/N=C(C)/C=C/c3ccc(N(C)C)cc3)S2)cc1 (stereo unspecified)	13.0%
CC(=O)N1CCN(C(=O)COC(=O)COc2ccc(C#N)cc2)CC1	0.5%
CN1CCN(S(=O)(=O)c2ccc3c4c(cccc24)C(=O)N3)CC1	-15.6%
Cc1ccc(-n2ncc(C(=O)NCCN3CCN(C)CC3)c2C2CCN(C(=O)OC(C)(C)C)CC2)c(C)c1	0.9%
Cc1ccc(NC(=O)c2nc(S(C)(=O)=O)ncc2N(Cc2ccc(C(C)(C)C)cc2)Cc2ccco2)cc1C	11.6%

Arranged by the number under VDR inh (low to high): six from the list above.
SMILES	VDR inh
COc1ccc(C)cc1S(=O)(=O)Nc1cc2c3c(c1)C(C)C(=O)N3CCC2 (stereo unspecified)	-16.5%
CN1CCN(S(=O)(=O)c2ccc3c4c(cccc24)C(=O)N3)CC1	-15.6%
C/C(=N\OC(=O)c1ccccc1)c1c(C)nc2cc(C)ccn12	-12.2%
COc1ccc(-n2c(=O)c3ccccc3n(CC(=O)c3ccccc3)c2=O)cc1OC	-10.3%
COc1ccc(NC(=O)c2cc3c(=O)n(Cc4ccco4)ccc3nc2C)c(OC)c1	-2.7%
O=C(Nc1nnc(C(F)(F)F)s1)c1ccc(N2C(=O)C3C4C=CC(C4)C3C2=O)cc1 (stereo unspecified)	2.0%

4 entries from above, with each value named.
CC1=C(C(N)=O)C(c2ccc3c(c2)OCO3)n2nc(-c3cccc(C)c3)nc2N1 (stereo unspecified)
  VDR inh: -6.2%
CC1CCC(C(C)C)C(OC(=O)Cn2c(-c3ccc(F)cc3)[n+](C)c3ccccc32)C1 (stereo unspecified)
  VDR inh: -15.2%
CC(C(=O)c1ccccc1)n1c(N2CCOCC2)nc2c1c(=O)n(C)c(=O)n2C (stereo unspecified)
  VDR inh: 4.0%
CCN(CC(=O)NC1CCS(=O)(=O)C1)S(=O)(=O)c1ccc(Br)cc1 (stereo unspecified)
  VDR inh: -11.1%

(listing goes on)
SMILES	VDR inh
CN(Cc1ccccc1)S(=O)(=O)c1cc2c3c(c1)CCN3C(=O)CC2	5.0%
Clc1ccccc1/C=C/c1nc(-c2cccnc2)no1	16.7%
COc1cc(Cl)cc(NC(=O)CCN2CCN(C)CC2)c1	-2.7%
CCCCn1c(SCC(=O)Nc2ccc(C)c(S(=O)(=O)N3CCOCC3)c2)nnc1C(CC)N(C)C (stereo unspecified)	-5.6%
COc1ccc(C(=O)C2C(=O)C(=O)N(Cc3ccco3)C2c2cccs2)cc1 (stereo unspecified)	?
CCC(CC)=NNc1ccc([N+](=O)[O-])cc1[N+](=O)[O-]	-8.8%
CN(C)c1ccc(/C=C/C(=O)c2ccc3c(c2)OCO3)cc1	-7.3%
O=S(=O)(Nc1nc2ccccc2s1)c1ccc(Cl)nc1	-0.6%
CCC1CN(C(=O)NCc2ccc(F)cc2)c2ccccc2O1 (stereo unspecified)	14.0%&-4.1%
Cc1ccc(S(=O)(=O)N2CCCC2)cc1C(=O)NCCN1CCOCC1	-11.0%
O=C(c1cc2cc(F)ccc2[nH]1)N(Cc1cccnc1)CC1CCCN(C2CCCCC2)C1 (stereo unspecified)	33.1%[activator]
Cc1c(Cl)cccc1NC(=O)Nc1ccc2snnc2c1	26.4%
Cc1c2cnn(-c3ccccc3)c(=O)c2c(C)n1CCCC(=O)N1CCN(C)CC1	9.0%
Cc1ccc(CNC(=O)CCc2c(C)nc3c4c(C)cc(C)nc4nn3c2C)cc1	9.9%
C=C(C(C)=O)C(O)c1ccc([N+](=O)[O-])cc1 (stereo unspecified)	50.1µM*
Cc1ccc(C)c2c1NC(C(=O)O)C1CC=CC21 (stereo unspecified)	-21.8%
CC(C)Nc1nc(NNc2nc(Cl)nc(NC(C)(C)C)n2)nc(NC(C)C)n1	-5.9%
CC(C)(C)NC(=O)NC(=O)COC(=O)c1cc(=O)[nH]c2ccccc12	-11.1%
Cc1cc(C)n2nc(SCCOc3ccccc3)nc2n1	-18.6%
CCn1nc(C)c(CN2CCCC(CO)(Cc3cccc(Cl)c3)C2)c1C (stereo unspecified)	-16.6%
COCCNC(=O)CCCn1c(=O)c2ccccc2n(Cc2cccc([N+](=O)[O-])c2)c1=O	?
CC(C)Cc1nc(Nc2ccccc2C#N)c2nnn(Cc3ccccc3)c2n1	-10.8%
CC(C)c1ccc2[nH]c3nc(SCC(=O)N4CCOCC4)nnc3c2c1	-4.3%
CCNc1nc(NCC)nc(-n2cc(C(=O)c3cc(Cl)ccc3O)cn2)n1	3.3%
Cc1cccc(NC(=O)CSc2nc(-c3cccc(C)c3)nc3c2Cc2c(CO)cnc(C)c2O3)c1	6.7%
Continued:
SMILES	VDR inh
Cc1ccc2[nH]c(=O)c(CN(Cc3ccco3)S(=O)(=O)c3c(C)ccc4nsnc34)cc2c1	-11.5%
Cc1ccc(/C=C/C(=O)c2ccc(N3CCOCC3)cc2)s1	7.6%
Cn1nc(C(=O)NNC(=O)C2CSC3(C)CCC(=O)N23)c2ccccc2c1=O (stereo unspecified)	-0.1%
CN(C)CCN(CC1CCCN(Cc2ccccc2F)C1)C(=O)c1ccc(F)cc1 (stereo unspecified)	-15.9%
C=CCn1c(C)cc(C(=O)CSc2nnc3c(Cl)cc(Cl)cn23)c1C	2.2%
CS(=O)(=O)N1CCc2cc(S(=O)(=O)N3CCCCC3)ccc21	-11.9%
Clc1ccccc1CNCC1CCCO1 (stereo unspecified)	-12.6%
CC(C)CCNC(=O)C(CC(C)C)NC(=O)C1OC1C(=O)O (stereo unspecified)	1.7%
COC(=O)[C@@]1(C)[C@H]2C(=O)N(C)C(=O)[C@H]2[C@H]2CN=C(SCc3ccccc3)N21	3.1%
COc1cc(/C=C(/NC(=O)c2ccccc2Cl)C(=O)O)cc(OC)c1OC	-2.6%
COc1ccc(NC(=O)CC(C)c2ccccc2)c([N+](=O)[O-])c1 (stereo unspecified)	-15.8%
Cc1cccc(N2C(=O)N(Cc3ccc(C(C)(C)C)cc3)c3ccccc3S2(=O)=O)c1	10.9%
CN(C)S(=O)(=O)c1ccc(C(=O)Nc2ccccc2F)cc1	22.0%
Clc1ncc(CSc2ccccc2)s1	-7.1%
CCOc1cc(C2CC(=O)Nc3c2c(C)nn3-c2nc(C)cc(C)n2)ccc1O (stereo unspecified)	11.8%
COc1ccc(CN(C(=O)c2cc3ccccc3oc2=O)C2CCCCC2)cc1OC	-2.3%
CCOC(=O)N1CCN(C(=O)CSc2nc(-c3cccc(C)c3)ns2)CC1	?
